HCMV NEC inh: inhibitors of HCMV UL50-UL53 nuclear egress complex interaction; HTRF UL50-UL53 interaction, normalized percent inhibition; inhibition, % (test concentration not listed); 190,000 tested, 0.15% active;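 active = both replicates at 50% or more, plus weaker picks with an unusually low signal ratio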;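 also: stock transfer was 100 nL into about 20 µL; 0% = negative control wells and 100% = wells with untagged competitor protein; inactives centre near -12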
GIV-Gai inh: blocks GIV peptide binding to rat Galpha-i3 | percent of control (FP), % (no concentration beside the values) | AID 1224905 | Galpha-i3/FITC-GIV peptide fluorescence polarization, 90 min; hits give low values; scaled: aluminum fluoride 0%, vehicle 100% | P08753 | 210,000 tested, 0.42% active;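 active = replicate mean at 85% of control or lower, very high polarization wells dropped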;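 also: wells of about 15 µL received 100 nL stock; the first replicate is given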
Target sequence (P08753 whole entry, looked up): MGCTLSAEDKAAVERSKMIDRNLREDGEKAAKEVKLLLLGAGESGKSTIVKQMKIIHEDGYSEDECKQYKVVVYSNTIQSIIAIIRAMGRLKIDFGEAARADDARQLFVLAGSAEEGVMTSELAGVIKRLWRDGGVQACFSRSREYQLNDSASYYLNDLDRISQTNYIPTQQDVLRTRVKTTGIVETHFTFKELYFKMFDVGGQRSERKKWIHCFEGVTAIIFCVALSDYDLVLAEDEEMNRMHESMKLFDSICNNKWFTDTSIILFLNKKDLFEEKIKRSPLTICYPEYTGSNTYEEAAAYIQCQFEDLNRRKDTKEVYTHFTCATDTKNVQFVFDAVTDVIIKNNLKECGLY
Sa growth 42C: inhibitors of Staphylococcus aureus growth at 42 °C; S. aureus RN4220 growth, OD600, 20 h; hits give low values; relative growth, % (no concentration beside the values); 170,000 tested, 0.53% active; AID 720641;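 active = growth at 42 °C up to 50% and 20 or more points under that at 30 °C, or under 10% at both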;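 also: 300 nL library stock went into each well; scaled to the means of positive and negative controls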
Sa growth 42C second temp: second read-out of Sa growth 42C, no call of its own (marks repeat the call); relative growth, %; measured here: growth at 30 °C;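 optical density after 20 h as mean of two plates; 100% = untreated growth and lower means inhibition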
* hit, by the source's call; x = no result given; & = joins results of further samples. An unsorted share of the library; about 0.83% have a hit in one of these screens.

The opening seven records, ahead of the listing:
SMILES | HCMV NEC inh | GIV-Gai inh | Sa growth 42C | Sa growth 42C second temp
O=S(=O)(c1ccc(Br)cc1)c1nnn2c1nc(NC1CCCCCC1)c1sccc12 | x | 98 | 92 | 86
S=c1n(-c2ccccc2)cnn1CN1CCN(c2ccccn2)CC1 | -27 | x | 73 | 88
COc1ccc(N2CCc3c(C)c(C#N)c4nc5ccccc5n4c32)cc1 | x | 110 | 93 | 92
Cc1c(-c2nnc(C(=O)N3CCN(c4ccc(Cl)cc4)CC3)o2)oc2ccccc12 | 9 | 103 | x | x
CCc1ccc(OCC(=O)Nc2c(C(=O)c3ccc(Br)cc3)oc3ccccc23)cc1 | -14 | 103 | 113 | 84
N#CC(C#N)=NNc1ccc2c(c1)OCCO2 | -62 | x | -0.1* | -0.4*
CC(C)(C)c1ccc(-c2nc(SCC(=O)Nc3ccc(Cl)cc3)[nH]c(=O)c2C#N)cc1 | -122 | 103 | 74 | 75

Results, from the start:
SMILES | HCMV NEC inh | GIV-Gai inh | Sa growth 42C | Sa growth 42C second temp
O=S(=O)(c1ccc(Br)cc1)c1nnn2c1nc(NC1CCCCCC1)c1sccc12 | x | 98 | 92 | 86
S=c1n(-c2ccccc2)cnn1CN1CCN(c2ccccn2)CC1 | -27 | x | 73 | 88
COc1ccc(N2CCc3c(C)c(C#N)c4nc5ccccc5n4c32)cc1 | x | 110 | 93 | 92
Cc1c(-c2nnc(C(=O)N3CCN(c4ccc(Cl)cc4)CC3)o2)oc2ccccc12 | 9 | 103 | x | x
CCc1ccc(OCC(=O)Nc2c(C(=O)c3ccc(Br)cc3)oc3ccccc23)cc1 | -14 | 103 | 113 | 84
N#CC(C#N)=NNc1ccc2c(c1)OCCO2 | -62 | x | -0.1* | -0.4*
CC(C)(C)c1ccc(-c2nc(SCC(=O)Nc3ccc(Cl)cc3)[nH]c(=O)c2C#N)cc1 | -122 | 103 | 74 | 75
CCOc1ccc(NC(=O)C2(c3ccccc3)CCOCC2)cc1 | x | 96 | 103 | 98
Cc1ccc(C(=O)NC(=O)CSc2nnc(C)s2)cc1 | -18 | 105 | 106 | 93
COCCN(CCc1ccncc1)S(=O)(=O)c1cc2[nH]c3c(c2cc1C)C(=O)CCC3 | -18 | 102 | 95 | 77
O=c1cc(CSc2ccccc2)[nH]c2ccc(F)cc12 | x | 104 | 81 | 86
Brc1ccc2[nH]c3nc4ccccc4nc3c2c1 | 3 | 98 | x | x
CCOC(=O)N1CCN(C(=O)c2ccc3c(c2)N(Cc2ccccc2F)C(=O)c2ccccc2S3=O)CC1 (stereo not given) | -34 | 98 | 93 | 88
Cc1onc(-c2ccccc2Cl)c1NC(=O)OC(C)c1cccnc1 (stereo not given) | -1 | 96 | 83 | 81
Cc1ccc(CC(=O)Nc2ccc3c(c2)N(C)C(=O)c2ccccc2S3)cc1 | x | 110 | 117 | 67
CN1CCN(C(CNC(=O)c2ccccc2Br)c2ccc(N(C)C)cc2)CC1 (stereo not given) | -26 | 97 | x | x
CC(C)(C)S(=O)(=O)c1ccc(NCCC2=CCCCC2)nn1 | -31 | 100 | x | x
O=C(NCC1CCCO1)c1ccc(COc2ccc(F)cc2)o1 (stereo not given) | 13 | 110 | 96 | 90
C=CCN(CC=C)C(=O)COc1ccccc1C(N)=O | -13 | x | 74 | 90
Cn1c(=O)c2c(nc(NCc3ccc4c(c3)OCO4)n2Cc2ccc(Cl)cc2Cl)n(C)c1=O | -25 | 108 | x | x
S=C(c1ccc(-c2ccccc2)o1)N1CCCCC1 | -16 | 99 | 113 | 45
CC1=CCC(c2cnc(-c3ccccc3)c(C)c2)NC1c1ccccc1 (stereo not given) | -6 | x | 70 | 32
CCOc1ccc(Nc2cc(C(=O)Nc3ccc(OC)cc3)ccn2)cc1 | 10 | 101 | x | x
COc1ccc(C2Nc3ccccc3C(=O)N2c2cccc3ccccc23)cc1COc1ccc(Cl)cc1 (stereo not given) | -16 | 99 | x | x
CCOc1ccc(Nc2oc(/C=C/c3cccc(OC)c3)nc2C#N)cc1 | -1 | 106 | 97 | 95
O=C(O)C1C2C=CC(C2)C1C(=O)NCc1ccccn1 (stereo not given) | -24 | 101 | 91 | 82
O=S(=O)(NCC(c1cccs1)N1CCc2ccccc2C1)c1ccccc1 (stereo not given) | 3 | 106 | 115 | 83
CCC(=O)N1c2ccccc2CC1C(=O)NCCc1ccc(SC)cc1 (stereo not given) | x | 100 | 101 | 91
O=C(Cc1ccc(F)cc1)NCCn1c(-c2ccccc2)nc2cccnc21 | -4 | 108 | x | x
COc1ccccc1NC(=O)CSc1oc(-c2ccccc2)nc1S(=O)(=O)c1ccccc1 | 7 | 102 | 103 | 109
COc1cc2c(cc1OC)C(C)N(c1c(-c3ccc(C)cc3)c(=O)c1=O)CC2 (stereo not given) | -35 | 126 | x | x
Cc1[nH]n(C(N)=S)c(=O)c1C(c1cccc(Cl)c1Cl)C(C#N)C#N (stereo not given) | 4 | x | 60 | 13
CSc1ccc(S(=O)(=O)NC(C)C)cc1 | 9 | 99 | 102 | 100
CCOc1ccc(-n2nnc(C(=O)NCCN3CCOCC3)c2C)cc1 | -24 | 106 | 78 | 84
CCC(=O)N1CCc2cc(Br)cc(S(=O)(=O)Nc3noc4ccccc34)c21 | 1 | 102 | 109 | 94
CC(C)CN(CC(C)C)Cn1c(=O)oc2ccccc21 | x | 108 | 102 | 85

Gathered by group, the entries above with an aryl methoxy group
SMILES | HCMV NEC inh | GIV-Gai inh | Sa growth 42C | Sa growth 42C second temp
COc1ccc(N2CCc3c(C)c(C#N)c4nc5ccccc5n4c32)cc1 | x | 110 | 93 | 92
CCOc1ccc(Nc2cc(C(=O)Nc3ccc(OC)cc3)ccn2)cc1 | 10 | 101 | x | x
COc1ccc(C2Nc3ccccc3C(=O)N2c2cccc3ccccc23)cc1COc1ccc(Cl)cc1 (stereo not given) | -16 | 99 | x | x
CCOc1ccc(Nc2oc(/C=C/c3cccc(OC)c3)nc2C#N)cc1 | -1 | 106 | 97 | 95
COc1ccccc1NC(=O)CSc1oc(-c2ccccc2)nc1S(=O)(=O)c1ccccc1 | 7 | 102 | 103 | 109
COc1cc2c(cc1OC)C(C)N(c1c(-c3ccc(C)cc3)c(=O)c1=O)CC2 (stereo not given) | -35 | 126 | x | x

Other compounds
SMILES | HCMV NEC inh | GIV-Gai inh | Sa growth 42C | Sa growth 42C second temp
O=C(NCC(c1ccco1)N1CCCCC1)c1ccc(S(=O)(=O)N2CCCC2)cc1 (stereo not given) | 2 | x | 80 | 93
CCCCC(CC)c1nnc(N)s1 (stereo not given) | -9 | 101 | 105 | 111
O=C(/C=C/c1cccs1)OCc1nc2ccccc2s1 | -43 | x | 96 | 95
O=c1oc2ccccc2cc1Cl | -76 | 104 | 90 | 79
COC(=O)C1(S(=O)(=O)C2(C(=O)OC)CCCC2)CCCC1 | 2 | x | 102 | 95
Cc1cc(C)cc(N2C(=O)CSC23C(=O)N(CC(=O)Nc2ccc(F)cc2F)c2ccccc23)c1 (stereo not given) | x | 105 | 81 | 89
O=c1c2cnn(-c3ccc(Cl)cc3)c2ncn1Cc1ccc(Cl)cc1 | x | 97 | 100 | 88
COc1cc(-c2nnc(SCCOc3ccc(Cl)cc3C)o2)cc(OC)c1OC | 14 | 101 | 99 | 95
CCc1ccc(S(=O)(=O)N2CCN(c3nc4ccccc4n4cccc34)CC2)cc1 | -14 | 104 | x | x
O=S(=O)(NCCn1c(C(F)(F)F)nc2ccccc21)c1ccc(Br)cc1 | -33 | 103 | x | x
C=CCn1c(CNC(=O)c2ccc(OC)cc2)nnc1SCc1nc2ccccc2c(=O)[nH]1 | 0 | 101 | 110 | 110
O=C(Cn1c(SCc2ccc(F)cc2)nc2cccnc21)Nc1ccccc1F | -4 | 106&107 | 99 | 100
O=C(NCc1ccccc1)C1CCCN(c2cnccn2)C1 (stereo not given) | -2 | 100 | 101 | 96
Cc1cccc(OCc2ccc(-c3nc(C#N)c(N4CCC(C(N)=O)CC4)o3)o2)c1 | -11 | 101 | 85 | 72
CCCCCn1c(CN2CCCCC2)nc2ccccc21 | -21 | 103 | x | x
Cc1ccc(/C=C/C(=O)OCC(=O)/C=C2\N(C)c3ccccc3C2(C)C)o1 | 1 | x | 112 | 82
O=C(On1c(-c2ccccc2)nc2ccccc2c1=O)c1ccco1 | -4 | 97 | x | x
Cc1cccc(NC(=O)CC2Nc3cccc4cccc(c34)NC2=O)c1 (stereo not given) | -16 | 104 | 101 | 90
c1ccc(-c2csc3ncnc(N4CCc5ccccc5C4)c23)cc1 | -16 | 99 | x | x
COC(=O)c1sccc1NC(=O)c1ccc2ncccc2c1 | -8 | 97 | 109 | 93
CCC1CCC2(CC1)SCC(=O)N2c1ccccc1 (stereo not given) | -2 | x | 89 | 91
O=C(C1CC1)N1c2ccccc2CCc2ccccc21 | x | 103 | 107 | 101
CS(=O)(=O)N(CCc1ccccc1)CC(=O)O | -10 | 106 | 96 | 77
CC1CCc2onc(C(=O)N3CCCc4ccccc43)c2C1 (stereo not given) | 1 | 107 | 104 | 108
COc1ccc(CNS(=O)(=O)c2ccc3c(c2)CCN3C(=O)C2CC2)cc1 | 10 | 101 | 106 | 96
Cc1nn(Cc2ccccc2Cl)c(C)c1NC(=O)c1cc(C(C)C)on1 | -18 | 103 | 99 | 82
O=C1C2C(C(=O)N1C1CCCCC1)C1C=CC2C12CC2 (stereo not given) | x | 104 | 105 | 89
CC1=C(C(=O)Nc2ccccc2)C(c2ccc(OC(=O)c3ccccc3)cc2)n2nnnc2N1 (stereo not given) | -3 | 106 | x | x
CCc1ccc(-n2c(SCC(=O)NC(C)CC)nc3n[nH]c(C)c3c2=N)cc1 (stereo not given) | x | 96 | 98 | 98
O=S1(=O)c2ccccc2NC(c2ccccc2Cl)N1Cc1ccccc1F (stereo not given) | -17 | 97 | x | x
CCCNS(=O)(=O)c1ccc(N2C(=O)CCS2(=O)=O)cc1 | -9 | 110 | x | x
O=C(O)c1ccccc1SCC(=O)N1CCc2ccccc21 | -2 | x | 98 | 92
CC(C)(C)C1CCC(OC(=O)c2ccco2)CC1 (stereo not given) | -8 | x | 91 | 91
O=C(CCn1cnc2onc(-c3ccc(F)cc3)c2c1=O)NCc1cccc(Cl)c1 | -6 | 104 | 97 | 93
Cc1cc(C)c(C)c(S(=O)(=O)Nc2ccccc2C(=O)NCC(=O)NCc2ccco2)c1C | 9 | x | 153 | 92
CN(C)C(CNC1CC2CC1C1CCCC21)c1ccco1 (stereo not given) | -1 | x | 99 | 79
Cc1cccc(NC(=O)COc2ccc(-c3nn(C)c(=O)c4ccccc34)cc2)c1 | -24 | 98 | 79 | 76
Oc1cccnc1CCc1ccccc1 | -9 | 100 | 104 | 97
Cc1cc(NC(=O)c2ccc(C#N)cc2)n(-c2ccccn2)n1 | -10 | x | 113 | 92
CSc1nnc2c(n1)OC(C)(C)Nc1ccccc1-2 | -30 | 105 | x | x
O=C(CCCn1c(=O)c2sccc2n(Cc2ccc(F)cc2)c1=O)NCc1ccc2c(c1)OCO2 | x | 105 | 100 | 79
COc1ccccc1/C=C(\C#N)c1ccc(C)cc1 | 5 | 106 | 111 | 96
OC(COCc1ccccc1)CN1CCCC1 (stereo not given) | 9 | 104 | 97 | 120
O=C(NCc1ccccn1)c1nnc(-c2cccnc2)o1 | x | 108 | 92 | 93
CCc1ccc(NC(=O)C2CCN(C(=O)N3CC(CC)Oc4ccccc43)CC2)cc1 (stereo not given) | -22 | 107 | 112 | 98
CCCNC(=O)c1c(O)c2ccccc2n(C)c1=O | 3 | 104 | 106 | 95
CCCc1nc2nc(C)c(N)c(=O)n2[nH]1 | -32 | 101 | 90 | 88
CCN(CC)S(=O)(=O)c1ccc(OC)c(NC(=O)c2sc3ccccc3c2Cl)c1 | 2 | 105 | 105 | 95
CCOC(=O)CSc1nc(N)c2c3c(sc2n1)CC(C(C)(C)C)CC3 (stereo not given) | -25 | 105 | x | x
O=C(COc1ccc2c(C(F)(F)F)cc(=O)oc2c1)N1CCc2ccccc21 | 3 | x | 106 | 95
O=C(Nc1cccnc1)C1CC(c2ccc(F)cc2)=NO1 (stereo not given) | x | 105 | 116 | 97
O=C(COc1ccccc1)Nc1nonc1NC(=O)COc1ccccc1 | x | 98 | 92 | 81
Cc1cn2c(nc1=O)OC1CC2OC1CO (stereo not given) | x | 104 | 96 | 99
CCN(CC)S(=O)(=O)c1ccc(N2CCN(c3ccccc3F)CC2)nc1 | -3 | x | 96 | 102

Source: PubChem BioAssay
